NPYLR7 agonist = activates Aedes aegypti NPYLR7 receptor; AID 1259423; HEK293T NPYLR7/Galpha15, GCaMP6s calcium fluorescence; 0.15% of 270,000 active; activation, % at 10 µM; in the data active means activation above about 40%;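 further: 0% = vehicle and 100% = reference agonist at the receptor; some compounds past the cut are filed as inactive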
NPYLR7 agonist max-min = second read-out of NPYLR7 agonist, no call of its own (marks repeat the call); activation, %; measured here: Max-Min RFU normalised activation; some inactives read as strong as hits;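 span of the calcium signal over five minutes; 0% = vehicle and 100% = native peptide agonist; compound fluorescence can raise it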
Numbers without * were called inactive; & = joins results of further samples. These rows are one share of the data; count on the stated rates, not on these rows.

SMILES	NPYLR7 agonist	NPYLR7 agonist max-min
CCNC(=O)C1(C)CCCN1C(=O)CCc1cccc(Cl)c1 (stereo not given)	5	2
Cn1c(O)c(N=NCc2ccccc2)c2ccccc21	10	9
COc1ccc(-n2c(C)nc3ccc(NC(=O)Nc4ccc(C)cc4C)cc3c2=O)cc1	-7	-9
CN(C)c1ccc(Sc2nnc(NC(=O)C(C)(C)C)s2)cc1	-4	-6
Cc1nc(N2CC(C)OC(C)(C)C2)nc(N2CC(C)OC(C)(C)C2)c1Cl (stereo not given)	3	0
CN(Cc1ccccc1)c1ncccc1CNC(=O)c1ccc[nH]1	2	1
O=C(Oc1ccc2ccc(O)cc2c1)c1cccc(Cl)c1	-1	19
N#CCC1(COC(=O)c2ccsc2)CC1	9	4
CCC(O)C1CCN(Cc2cn(Cc3ccccc3)nc2-c2cc3ccccc3o2)CC1 (stereo not given)	-4	-7
O[C@@H]1CN(c2cnc3ccccc3n2)CC[C@H]1c1ccc2c(c1)OCO2	-2	-4
COc1ccc(C2CC(c3ccc(C)cc3C)=NN2C(=O)CN2CCC3(CC2)OCCO3)c(OC)c1 (stereo not given)	-2	7
CNC(=O)CN1C(=O)CCN(C(=O)CC(C)(C)C)CC(OC)c2ccccc21 (stereo not given)	3	5
CC(C)[C@H](NS(=O)(=O)c1ccccc1S(C)(=O)=O)c1nnc2c(C(F)(F)F)cccn12	-11	-15
Cc1ccccc1C(NC(=O)CNC(=O)c1ccoc1C)C(C)C (stereo not given)	11	9
CC(C)c1cc(C2CCN(C(=O)C3=CC(=O)CC(C)(C)O3)CC2)[nH]n1	-2	-6
O=C(COc1coc(CN2CCN(Cc3ccccc3)CC2)cc1=O)NCC1CCCO1 (stereo not given)	-1	-1
O=[N+]([O-])c1ccccc1N(CC1CO1)S(=O)(=O)c1ccccc1 (stereo not given)	9	9
CCOC(=O)C1CCN(C(=O)c2cccc(CSc3nc(CC)cc(N4CCN(c5ccccc5Cl)CC4)n3)c2)CC1	7	21
Cc1cc(N2CCN(C(=O)c3ccccc3)CC2)c(F)cc1[N+](=O)[O-]	-1	-2
Cc1ccn(CC(=O)NCC2(N(C)Cc3ccccc3)Cc3ccccc3C2)n1	7	1
COC(=O)C(C)N1C(=O)SC(=Cc2ccc(N3CCOCC3)o2)C1=O (stereo not given)	18	12
C=CCN(CC=C)C(=O)CN1CCCC1c1cc(C)no1 (stereo not given)	-1	-1
c1cc(CCN2CCN(c3c4c(nc5ncnn35)CCCC4)CC2)ccn1	13	6
CS(=O)(=O)N1CCCN(c2nc(C=Cc3ccccc3)nc3sc4c(c23)CCCC4)CC1	0	2
CN1C(=O)C2(CCCN(C(=O)c3c[nH]c(=O)cn3)C2)c2ccccc21 (stereo not given)	-1	-3
(listing goes on)
SMILES	NPYLR7 agonist	NPYLR7 agonist max-min
Cc1nn(-c2ccccc2)c(OC(=O)C2CC2)c1S(=O)(=O)c1ccccc1	-1	18
CC(C)CCn1c(O)c(N=NC(=O)c2ccco2)c2ccccc21	-2	-9
CC(C)NC(=O)c1ccccc1-c1cc(Cl)c2c(c1)CC(CN)O2 (stereo not given)	19	11
COc1ccc(CCn2c(CC(C)CC(C)(C)C)nc3ccccc3c2=O)cc1 (stereo not given)	7	3
COc1cc(-c2ccnc(N3CCN(C(=O)c4c(Cl)ccc(C)c4F)CC3)n2)cc(OC)c1OC	6	1
O=C(NCCc1ccccn1)c1ccc(N2CCCCC2=O)cc1	-1	-2
CCNC(=O)[C@H]1CC[C@@](C)(C(=O)NCCCN2CCOCC2)C1(C)C	19	10
O=C1C(Oc2ccc(F)cc2Cl)C(c2cscn2)N1CC1CCCO1 (stereo not given)	7	5
O=C(Cc1ccccn1)N[C@H]1CCC[C@H]1Cc1ccc(F)cc1	3	-3
N#CC1(c2cccc(C(F)(F)F)c2)CCCCC1	-3	-5
CNC(=O)c1nnc2n1C(c1ccccc1)CN(C(=O)c1ccccc1Oc1ccccc1)C2 (stereo not given)	7	3
CC(C)N1C(=O)C(=Cc2ccc(O)cc2)SC1=S	5	6
CSc1ccccc1-c1cnc(NC(C)=O)cn1	-1	-1
CN(C)c1ccc(NC(=O)c2cccs2)cc1CN(Cc1cccc(F)c1)C(=O)c1ccc(F)cc1	14	7
O=C1CC(NS(=O)(=O)NCc2ccccc2)CN1c1ccccc1Cl (stereo not given)	-4	-4
Cc1cc2n(n1)CC(CNCc1ccc3c(c1)CCCN3C)CN2 (stereo not given)	10	6
Cc1ccc(OCC(N)=O)c(-c2cccc(C(C)N(C)C)c2)c1 (stereo not given)	3	1
COc1ccc(-c2cc(C(=O)N3CCOCC3)c(C)n2-c2ccccc2Cl)cc1	3	8
COc1cccc(F)c1-c1cccc(CNC2CC2)c1	13	7
Cc1nc(N2CCN(C)CC2)c2c3c(sc2n1)CCCC3	3	3
CCCc1[nH]n(-c2ccccc2)c(=O)c1C1=C([n+]2cccc(CC)c2)C(=O)N(CC2CCCO2)C1=O (stereo not given)	-4	0
Cc1ccccc1C1CCCN1c1ccc(C(N)=O)nn1 (stereo not given)	-8	-11
CCCCNC(=O)N1CCN(C(=O)c2cc(-c3ccccc3)n(-c3ccccc3Cl)c2C)CC1	-4	5
CC1(C(=O)NS(=O)(=O)c2cccs2)CCN1C(=O)COc1ccc(Cl)cc1 (stereo not given)	4	1
CCOC(=O)c1c(CN2CCOCC2)n(-c2ccccc2)c2cc(Br)c(O)cc12	7	3

22 successive entries from above, quoted:
SMILES	NPYLR7 agonist	NPYLR7 agonist max-min
COc1ccc(CCn2c(CC(C)CC(C)(C)C)nc3ccccc3c2=O)cc1 (stereo not given)	7	3
COc1cc(-c2ccnc(N3CCN(C(=O)c4c(Cl)ccc(C)c4F)CC3)n2)cc(OC)c1OC	6	1
O=C(NCCc1ccccn1)c1ccc(N2CCCCC2=O)cc1	-1	-2
CCNC(=O)[C@H]1CC[C@@](C)(C(=O)NCCCN2CCOCC2)C1(C)C	19	10
O=C1C(Oc2ccc(F)cc2Cl)C(c2cscn2)N1CC1CCCO1 (stereo not given)	7	5
O=C(Cc1ccccn1)N[C@H]1CCC[C@H]1Cc1ccc(F)cc1	3	-3
N#CC1(c2cccc(C(F)(F)F)c2)CCCCC1	-3	-5
CNC(=O)c1nnc2n1C(c1ccccc1)CN(C(=O)c1ccccc1Oc1ccccc1)C2 (stereo not given)	7	3
CC(C)N1C(=O)C(=Cc2ccc(O)cc2)SC1=S	5	6
CSc1ccccc1-c1cnc(NC(C)=O)cn1	-1	-1
CN(C)c1ccc(NC(=O)c2cccs2)cc1CN(Cc1cccc(F)c1)C(=O)c1ccc(F)cc1	14	7
O=C1CC(NS(=O)(=O)NCc2ccccc2)CN1c1ccccc1Cl (stereo not given)	-4	-4
Cc1cc2n(n1)CC(CNCc1ccc3c(c1)CCCN3C)CN2 (stereo not given)	10	6
Cc1ccc(OCC(N)=O)c(-c2cccc(C(C)N(C)C)c2)c1 (stereo not given)	3	1
COc1ccc(-c2cc(C(=O)N3CCOCC3)c(C)n2-c2ccccc2Cl)cc1	3	8
COc1cccc(F)c1-c1cccc(CNC2CC2)c1	13	7
Cc1nc(N2CCN(C)CC2)c2c3c(sc2n1)CCCC3	3	3
CCCc1[nH]n(-c2ccccc2)c(=O)c1C1=C([n+]2cccc(CC)c2)C(=O)N(CC2CCCO2)C1=O (stereo not given)	-4	0
Cc1ccccc1C1CCCN1c1ccc(C(N)=O)nn1 (stereo not given)	-8	-11
CCCCNC(=O)N1CCN(C(=O)c2cc(-c3ccccc3)n(-c3ccccc3Cl)c2C)CC1	-4	5
CC1(C(=O)NS(=O)(=O)c2cccs2)CCN1C(=O)COc1ccc(Cl)cc1 (stereo not given)	4	1
CCOC(=O)c1c(CN2CCOCC2)n(-c2ccccc2)c2cc(Br)c(O)cc12	7	3

Following part
SMILES	NPYLR7 agonist	NPYLR7 agonist max-min
C=CCN1C(=O)/C(=C/c2ccc(N(CC)CC)cc2O)SC1=S	-4	6
O=C(Cc1ccc(F)cc1)Nc1c(-c2ccc(C(F)(F)F)cc2)nc2ccccn12	-9	0
Cc1nc(SCC(=O)N2CCCC2c2ccccn2)n[nH]1 (stereo not given)	8	5
CCCN(CC(=O)N(Cc1ccc(F)cc1)Cc1ccc(C)o1)C(=O)c1ccccc1OC	-6	-4
CCCc1[nH]n(-c2cccc(Cl)c2)c(=O)c1/C=C1\NC(=O)N(Cc2ccccc2C#N)C1=O	0	2
N=C(N)SC(CN1CCCCC1)C(F)(F)F (stereo not given)	1	26
O=C(CCc1cccs1)N1CCc2c([nH]c3ccccc23)C1C1CCCCC1 (stereo not given)	-7	-12
COC(=O)CCc1c(C)nn(-c2ccc(C(=O)N3CCC(O)(Cc4ccccc4)CC3)cc2)c1C	-2	-6
CCN(CC)C(=O)CN(C)c1ncnc2scc(-c3ccc(C)cc3)c12	1	2
COc1ccc(C2CC(=O)C3C(=Nc4ccccc4NC3c3cccc(Cl)c3Cl)C2)cc1 (stereo not given)	4	-2
CCOCCCNC(=O)c1cc(NC(=O)COC)ccc1N1CCN(c2ccccc2OC)CC1	-6	-9
CCOC(=O)N1CCC(NS(=O)(=O)c2cc(Cl)ccc2Cl)CC1	0	-3
O=c1c2nc(N3CCCCC3)sc2c(-c2ccco2)nn1Cc1ccc(C(F)(F)F)cc1	-2	-6
Cc1nnc(SCCCC(=O)N2CC3(C)CC2CC(C)(C)C3)n1-c1ccccc1 (stereo not given)	12	14
CCOC(=O)c1nn(-c2ccc(F)cc2)c(=O)cc1OS(=O)(=O)c1ccc2c(c1)OCCO2	5	8
COc1ccc(-c2noc([C@@H]3O[C@H](CO)[C@H](O)[C@H](O)[C@H]3O)n2)cc1OC	3	2
O=C(c1cn(CCc2ccccc2)nn1)N1CCCC1c1nc2ccc(F)cc2[nH]1 (stereo not given)	6	2
COc1ccccc1Nc1nc(-c2cc3ccccc3oc2=O)cs1	5	6
CC(C)NC(=O)CN1CCN(Cn2nc3ccccn3c2=S)CC1	6	1
COCC(NC(=O)C(=O)N1CCCc2ccccc21)c1ccnn1C (stereo not given)	9	7
Cc1cccc(S(=O)(=O)N[C@H](c2nnc3c(C(F)(F)F)cccn23)C(C)C)c1	-7	-13
CCCCOc1ccc(C(=O)N(CC(=O)Nc2cc(C(C)(C)C)nn2-c2ccc(C)cc2)Cc2ccccc2)cc1	20	12
CCCc1noc(CN2CCN(c3cnccn3)CC2)n1	5	5
CC1(C(=O)NS(=O)(=O)Cc2ccccc2C(F)(F)F)CCN1C(=O)c1ccco1 (stereo not given)	-2	-10
Cc1ccccc1C(=O)NC(=S)N1CC(C)OC(C)C1 (stereo not given)	0	7

The final 2 records of the section before come first, to join the parts.
SMILES	NPYLR7 agonist	NPYLR7 agonist max-min
CC1(C(=O)NS(=O)(=O)Cc2ccccc2C(F)(F)F)CCN1C(=O)c1ccco1 (stereo not given)	-2	-10
Cc1ccccc1C(=O)NC(=S)N1CC(C)OC(C)C1 (stereo not given)	0	7
Cn1c(=O)c2c(nc(CN3CCCCC3)n2CCCO)n(C)c1=O	3	3
Cc1nc2cc([N+](=O)[O-])ccc2s1	-1	-1
CCOC(=O)c1ccc2c(c1)nc(SCc1ccc(Br)cc1F)n2CCOC	5	3
CCN(CC)C(=O)c1cc(NC(=O)NC23CC4CC(CC(C4)C2)C3)ccc1N1CCCCC1	21	27
Cc1ccccc1C1CC1C(=O)N(C)C1CCCC1S(C)(=O)=O (stereo not given)	2	3
Cn1ccnc1SCc1cc(=O)c(OC(=O)c2ccc3ccccc3c2)co1	8	5
CO/N=C(/C(=O)N[C@@H]1C(=O)N2C(C(=O)O)=C(COC(C)=O)CS[C@H]12)c1csc(N)n1	-5&7	-6&-13
C#CCOCC1CCN(C(=O)Nc2cccc(OC)c2OC)CC1	13	9
COC(=O)c1ccc(CN2CCN(Cc3ccc(C)o3)C(CCO)C2)cc1 (stereo not given)	-1	-2
COc1ccc(C2=NN(C(=O)CN3CCN(c4ccccc4F)CC3)C(c3ccc(Cl)cc3)C2)cc1 (stereo not given)	15	13
CC(=O)Nc1cccc(O)c1	0	-10

Assay outcomes (PubChem BioAssay)
